# Bioassay records deposited in PubChem by several laboratories.
# ugtP null kill: growth inhibition of ugtP-null S. aureus, primary screen, RN4220 ugtP deletion, OD600; 16 h; some inactives read as strong as hits; growth inhibition, % (concentration not given with the values); actives 0.54% (n = 330,000);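 active = z-score under -3 and OD600 up to 0.15 on both plates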;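 also: plate controls were untreated wells for no effect and antibiotic for full effect; wells of about 80 µL received 100 nL stock; the first replicate is given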
# Autofluor counter: flagged as autofluorescent in microsphere protease counterscreen. AID 624483. compound autofluorescence counterscreen, microsphere flow cytometry; hits give high values. actives 3.1% (n = 360,000). fluorescence intensity (concentration not given with the values);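 active = at least 3 SD above the mean of all compounds, about 16000 in these data; inconclusive = too few beads counted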;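 also: 100 nL of 1 mM stock went into each well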
# BJeLR lethal: MLPCN primary cell-based screen for lethality selective to Ras in HRASV12 cells | BJeLR (HRASV12) viability, CellTiter-Glo ATP luminescence, 48 h; reference of the scale not given here | inhibition, % (test concentration not listed) | actives 0.17% (n = 300,000) | AID 1554, 2009;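 active = replicate mean above 50%; inconclusive = above 50% but judged a plate artefact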;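 also: 50 nL library stock added to about 25 µL; numbers are from one replicate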
# RN4220 kill: growth inhibition of S. aureus RN4220, primary screen, OD600 | 16 h | inhibition, % (concentration not given with the values) | actives 0.33% (n = 330,000);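 active = z-score of -3 or lower and OD600 up to 0.18 on both plates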;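 also: plate controls were untreated cells for no effect and reference antibiotic for full effect; stock transfer was 100 nL into about 80 µL; one replicate is shown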
# Mtb hypoxia inh: PubChem AID 1159583. M. tuberculosis hypoxia-regulated fluorescent reporter, fluorescence. fluorescence inhibition, % (test concentration not listed). actives 0.1% (n = 300,000);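 active = 35 to 45% if threefold the growth effect, above 45% if 1.5-fold the growth effect; inactive = the rest, general growth blockers included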;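 also: wells of about 50 µL received 100 nL stock; 0% = vehicle wells and 100% = reference inhibitor wells; whole bacteria with a GFP reporter of the hypoxia response; strong numbers were not always called active; many hits fall short of the cut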
# PrP UTR inh: inhibition of PrP 5' UTR reporter expression; cell-based PrP 5' UTR mRNA reporter, plate reader; inhibition, % (no concentration beside the values); actives 0.35% (n = 340,000); AID 488862, 2010;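 active = every replicate at 50% or more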;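 also: 0 = median of the neutral control wells; tested in H4 reporter cells; numbers are from one replicate; inactives centre near -14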
# Mtb hypoxia inh growth: second read-out of Mtb hypoxia inh, no call of its own (marks repeat the call); growth inhibition, %; measured here: M. tuberculosis growth (absorbance);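 0% = vehicle and 100% = reference antibiotic; read after six days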
# The depositor's hits bear a star; ? = inconclusive; . = not tested or not shown.
SMILES,ugtP null kill,Autofluor counter,BJeLR lethal,RN4220 kill,Mtb hypoxia inh,Mtb hypoxia inh growth,PrP UTR inh
CC(=O)OC1CC[C@@]2(C)C(=CCC3C4CCC(C(C)=O)[C@@]4(C)CCC32)C1 (some centres not stated),22.2,.,.,1.1,7.7,12.8,.
CCN1C(=O)C(C)S/C1=N\S(=O)(=O)c1ccc(Cl)s1 (configuration not stated),.,2918,2.6,.,.,.,-5.6
C[C@H]1[C@H]2c3nc4ccccc4n3C[C@H]1ON2C1CCCCC1,.,3411,-14.7,.,.,.,4.1
Cc1ccc(O)c(C(=O)c2cnc(/N=C(\N)N(C)C)nc2)c1,.,6006,0.7,.,.,.,-16.1
Cc1ccc(C)c(-n2[nH]c3c4c(ccc3c2=O)C(=O)c2ccccc2C4=O)c1,2.3,10774,4.1,33.9,-6.4,-4.9,-26.7
CSc1ncccc1C(=O)N1CCN(S(=O)(=O)c2ccc3ccccc3c2)CC1,6.5,.,.,5.2,-0.9,-1.7,-15.7
COc1ccc2nc(Nc3nc(-c4ccncc4)cs3)sc2c1,.,4381,-17.9,.,.,.,-53.8
COC(=O)C1=C(c2ccc(F)cc2OCc2ccccc2)CC2CCC1N2C(=O)NCCOc1ccccc1Cl (configuration not stated),7.7,.,.,-7.4,4.3,-3.4,.
Cc1cccc(NC(=O)CSc2nnc(-c3ccccc3C)o2)c1,-13.6,18972*,1.6,16.5,2.3,13.5,-60.1
CCc1ccccc1NC(=O)CN1CCN(CC(=O)NCc2ccc(Cl)cc2)CC1,4.4,3361,.,10.8,10.4,6.7,1.8
CCCCSc1nnc(-c2ccccc2NC(C)=O)c(=O)[nH]1,5.1,4323,.,4.7,9.7,12.0,-12.9
Cn1c(O)c(N=NC(=O)Cn2c(C(F)(F)F)nc3ccccc32)c2ccccc21,7.0,2603,-2.1,1.6,2.1,7.0,-5.8
CCC(=O)Nc1cccc(C(=O)N(Cc2ccccc2)Cc2ccccc2)c1,-7.5,4143,4.5,2.0,-6.7,-8.4,-26.1
Cc1cc(CN(C)Cc2c(C(=O)N3CCCCCCC3)nc3ccc(Cl)cn23)n[nH]1,-2.0,2515,-18.3,-2.4,-5.4,5.0,-11.7
Cn1c(=O)c2c(ncn2CCCNC2=CC(C)(C)CC(=O)C2)n(C)c1=O,-0.3,.,-3.3,1.0,.,.,.
CC1=C(C(=O)OC(C)C)C(c2cccnc2)C2=C(CC(C)(C)CC2=O)N1 (configuration not stated),2.3,12913,1.5,5.2,10.8,1.8,-24.4
C[C@@H](C(=O)Nc1ccc2c(c1)OCO2)n1c(=O)[nH]c2ccccc2c1=O,-9.0,6043,1.6,-2.3,-3.8,12.7,-13.1
O=c1c2ccccc2cnn1Cc1ccc(Br)cc1F,16.2,6520,-1.3,9.8,21.9,28.6,-16.2
C/C(CC(=O)Nc1c(C)cc(C)cc1C)=N\NC(=O)c1cnccn1,.,2324,-3.2,.,.,.,-2.1
CC(=O)N1CC(=O)N(Cc2ccccc2)/C(=C/c2ccccc2)C1=O,0.9,4475,0.8,1.0,-6.4,5.6,-15.2
CCOc1cc(C2Nc3ccccc3C(=O)N2c2ccccc2OC)ccc1O (configuration not stated),-6.5,3749,-7.3,-1.8,-6.3,7.3,-4.8
CC(C)OCCCNC(=S)N1CCC(C(=O)c2ccc3c(c2)OCCO3)CC1,-13.3,4317,-1.7,-2.9,-7.9,9.8,-17.6
CN(C)S(=O)(=O)c1cccc(NC(=O)CSc2nc3ccccc3[nH]2)c1,-2.4,2795,7.0,3.5,-4.6,-2.5,-17.0
O=[N+]([O-])c1cc(Oc2cccnc2)cc([N+](=O)[O-])c1,31.6,2558,-5.3,51.1,12.9,9.2,-9.3
CCn1nc(C(=O)NCc2ccco2)c(Cl)c1Cl,-2.4,2016,-0.9,-0.3,20.8,33.0,17.1
CN(C(=O)CSc1nnc(CNC(=O)c2ccccc2)o1)c1ccccc1,0.3,5257,-3.3,1.6,6.0,4.9,-22.4
COc1cccc(CN(C)C(=O)Cc2ccc(OC)c(S(=O)(=O)N3CCOCC3)c2)c1,6.7,4876,-6.9,3.6,4.6,0.0,-18.5
CCc1ccc(CN(C)C(=O)c2cc(COc3ccc(OC)cc3Cl)on2)nc1,4.6,5439,-1.1,-2.7,1.5,9.7,-41.5
COc1cc(N=Nc2c(C)n(C)n(-c3ccccc3)c2=O)ccc1N,12.5,4233,-15.0,7.6,12.8,6.3,1.6
CC(C)(C)C(=O)COC(=O)C1=NN(c2ccccc2)C(=O)CC1,8.2,3186,-5.9,0.1,16.7,3.7,-8.4
COc1ccccc1N1CCN(C(=O)c2cc(C(C)(C)C)oc2C)CC1,-11.4,.,-6.4,0.4,-3.3,11.1,-13.5
CC(=O)C1=NN(c2ccc(Cl)cc2)C(c2ccc3c(c2)OCO3)N(C(C)=O)N1C (configuration not stated),2.6,5752,2.7,-7.4,-1.5,0.2,-30.6
C#CCn1cc(C=C2C(=O)c3ccccc3C2=O)c2ccccc21,-17.9,2977,4.0,0.1,-2.9,-0.5,-8.1
COc1ccc(NC(=O)c2cc3ccc4c5ccccc5[nH]c4c3cc2O)cc1,.,4593,7.2,.,.,.,-14.5
CCc1ccc(OS(=O)(=O)c2cn(C)c(=O)n(C)c2=O)cc1,.,4879,-5.0,.,.,.,-19.6
Cc1ccc(-c2nnc(COC(=O)c3cccs3)o2)cc1,1.9,4211,6.4,1.9,9.3,7.3,-35.2
Cc1sc(NC(=O)CN2CCOCC2)c(C(=O)c2ccccc2)c1C,27.7,6089,-0.8,4.7,10.5,17.0,-17.0
Cc1ccnc(-n2sc3ccccc3c2=O)n1,.,3601,5.9,.,.,.,-24.2
CCOC(=O)C1CCCN(C2CC(=O)N(c3ccc(C)c(C)c3)C2=O)C1 (configuration not stated),1.0,3295,-1.0,-9.9,18.7,5.2,-3.7
N#CC1(P(=O)(c2ccccc2)c2ccccc2)CC1,-6.0,5254,-4.2,1.8,.,.,-18.0
CCCCn1c(-c2csc3c2CCCC3)n[nH]c1=S,0.5,.,2.4,6.2,15.3,14.4,.
CCOC(=O)C1=C(C)NC(=O)NC1c1ccc(OC(C)C(=O)O)c(OC)c1 (configuration not stated),-0.5,4711,1.1,6.7,4.9,8.8,4.4
CC1(C)Cc2c(sc(NC(=O)C(=O)N3CCCC3)c2C(=O)O)CO1,3.7,5123,-14.4,-0.1,-0.7,-6.5,-23.2
CC1CCCN(S(=O)(=O)Cc2ccc(Cl)cc2)C1 (configuration not stated),4.4,12216,5.0,2.0,6.0,9.9,-3.3
O=C(c1ccc(Cl)c(S(=O)(=O)N2CCOCC2)c1)N(Cc1ccco1)Cc1cccs1,0.2,5648,.,-2.0,-4.8,1.0,-39.6
CC(C)CNC(=O)c1ccccc1N(Cc1ccccc1)S(C)(=O)=O,1.8,3703,-10.1,1.2,11.4,4.5,-10.0
CCCCN(C)C(=O)c1cc2c(Cl)nc3ccccc3c2s1,-1.7,4052,-6.1,9.5,.,.,-26.2
CCOC(=O)C1(Cc2ccc(O)cc2)NC(c2ccccc2F)C2C(=O)N(C)C(=O)C21 (configuration not stated),-3.2,3696,12.3,3.2,14.8,18.1,-15.8
CCc1nn(CCCC(=O)NCc2cc(Br)ccc2OC)c(=O)c2cc3occc3n12,8.1,5110,-11.1,4.2,18.0,2.9,-8.0
O=C(NCC(c1ccco1)N1CCN(c2ccccc2)CC1)C(=O)NC1CCCC1 (configuration not stated),7.5,?,0.9,1.9,11.7,8.3,-16.5
COc1cc(NC(=S)N2CCN(S(=O)(=O)c3ccc(C)cc3)CC2)cc(OC)c1,3.9,5363,4.9,4.6,5.1,6.9,-15.2
Cc1cc(=O)[nH]c(NN)n1,4.1,4386,3.1,0.4,9.1,7.1,-16.1
CCOC(=O)C1=C(O)C(=O)N(Cc2ccccc2)CC1,14.2,2543,-5.1,6.4,0.1,6.9,-10.1
O=C(NCC(c1ccco1)N1CCCC1)c1ccc(S(=O)(=O)Nc2ccc(F)cc2)cc1 (configuration not stated),1.7,9656,.,1.1,-4.2,1.1,-2.8
O=S(=O)(c1ccccc1Br)N(CC(O)COCc1ccccc1)C1CC1 (configuration not stated),1.4,3777,.,5.1,7.2,7.5,-17.4
COc1ccc(-c2cc(C(=O)N3CCN(C(=O)c4ccccc4F)CC3)[nH]n2)cc1,15.3,4301,17.9,0.5,8.5,3.4,-17.8
FC(F)(F)c1cc(Oc2ccc(Cl)cc2)ncc1-c1nnc(-c2ccc(Cl)cc2)o1,37.0,5181,2.3,-3.5,15.1,14.4,-28.0
CS(=O)(=O)N1CCN(Cc2ccc([N+](=O)[O-])cc2)CC1,3.0,4185,.,2.0,-4.6,4.2,-20.3
CS(=O)(=O)c1ncc(Cl)c(C(=O)Nc2ccc(N3CCOCC3)cc2)n1,12.5,10912,-0.7,10.5,9.8,15.9,-35.9
CC(C)NC(=O)C1c2ccccc2Oc2ccccc21,12.4,3946,2.1,4.1,10.7,9.0,-42.4

# Reprinted from the part before: seven entries, then new ones.
SMILES,ugtP null kill,Autofluor counter,BJeLR lethal,RN4220 kill,Mtb hypoxia inh,Mtb hypoxia inh growth,PrP UTR inh
O=C(NCC(c1ccco1)N1CCCC1)c1ccc(S(=O)(=O)Nc2ccc(F)cc2)cc1 (configuration not stated),1.7,9656,.,1.1,-4.2,1.1,-2.8
O=S(=O)(c1ccccc1Br)N(CC(O)COCc1ccccc1)C1CC1 (configuration not stated),1.4,3777,.,5.1,7.2,7.5,-17.4
COc1ccc(-c2cc(C(=O)N3CCN(C(=O)c4ccccc4F)CC3)[nH]n2)cc1,15.3,4301,17.9,0.5,8.5,3.4,-17.8
FC(F)(F)c1cc(Oc2ccc(Cl)cc2)ncc1-c1nnc(-c2ccc(Cl)cc2)o1,37.0,5181,2.3,-3.5,15.1,14.4,-28.0
CS(=O)(=O)N1CCN(Cc2ccc([N+](=O)[O-])cc2)CC1,3.0,4185,.,2.0,-4.6,4.2,-20.3
CS(=O)(=O)c1ncc(Cl)c(C(=O)Nc2ccc(N3CCOCC3)cc2)n1,12.5,10912,-0.7,10.5,9.8,15.9,-35.9
CC(C)NC(=O)C1c2ccccc2Oc2ccccc21,12.4,3946,2.1,4.1,10.7,9.0,-42.4
CC[C@]12c3[nH]c4ccc(Cl)cc4c3CCN1C(=O)[C@@H](CC(=O)NC/C=C(\C)CCC=C(C)C)C[C@@H]2C(=O)N1CCN(C(=O)c2ccco2)CC1,-18.9,3488,.,2.3,-2.8,6.6,-4.4
CN(C)C(=S)c1ccccc1,3.6,.,3.1,-1.9,-9.3,9.2,-26.6
Fc1ccc(NC(=S)Nc2cccnc2)c(Cl)c1,5.1,3750,-2.5,0.1,10.6,-1.1,-31.0
O=C(Nc1ccccc1N1CCOCC1)c1cccc([N+](=O)[O-])c1,2.9,2157,-13.7,4.5,5.4,-0.7,-6.7
CCN(c1ccccc1)S(=O)(=O)c1ccc(Cl)c(NC(=O)CNCc2ccccc2OC)c1,0.3,3906,.,2.3,10.9,-1.3,-11.6
Cc1ccc(NC(=O)CSc2nccc(=O)[nH]2)c(S(=O)(=O)N2CCOCC2)c1,0.4,2400,-6.3,3.1,-5.1,5.1,-26.5
CC1=C(C(N)=O)C(c2ccc(Cl)cc2)NC(=O)N1 (configuration not stated),-4.5,9977,3.1,-0.7,1.5,9.5,-27.5
NCCCC[C@H]1CNC(=O)C(=O)N1CCC12CC3CC(CC(C3)C1)C2,.,4023,5.1,.,.,.,-18.7
